Screening data (PubChem)
B2AR ag: human beta-2 adrenergic receptor agonism by FAP; P07550; Am2.2-beta2AR cells, FAP receptor internalization, flow cytometry; reference of the scale not given here; response, % (test concentration not listed); 340,000 tested, 0.43% active; AID 504454;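 active = response above a set limit, near 3 SD of response in nonfluorescent compounds, cut at about 42% in these data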;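 also: stock transfer was 100 nL into about 11 µL; a reference agonist was the positive control; negative values mostly stem from fluorescent compounds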
Target sequence (P07550 whole entry, looked up): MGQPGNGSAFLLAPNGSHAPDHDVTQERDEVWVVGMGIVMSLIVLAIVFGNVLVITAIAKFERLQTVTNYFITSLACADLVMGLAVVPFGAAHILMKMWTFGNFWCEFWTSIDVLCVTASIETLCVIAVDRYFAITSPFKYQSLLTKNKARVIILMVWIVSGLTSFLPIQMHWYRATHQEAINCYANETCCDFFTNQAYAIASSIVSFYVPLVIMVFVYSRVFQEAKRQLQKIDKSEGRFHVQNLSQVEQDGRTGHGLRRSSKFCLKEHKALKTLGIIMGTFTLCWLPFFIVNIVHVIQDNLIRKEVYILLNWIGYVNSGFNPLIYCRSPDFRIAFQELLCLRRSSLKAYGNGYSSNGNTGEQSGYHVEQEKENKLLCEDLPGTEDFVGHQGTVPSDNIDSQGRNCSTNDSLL
Ecoli rRNA inh: inhibits bacterial ribosomal RNA function over humanized ribosomes. E. coli WT GFP vs humanized-ribosome RFP mutants, fluorescence, 24 h; hits give low values; DMSO median 0, no signal -100. GFP signal change (wild-type ribosome), % (no concentration beside the values). 350,000 tested, 1.6% active. AID 720706;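 active = significant combined selectivity score with lowered wild-type GFP, culture density cut under 30%, mutant RFP and density less affected; inactive = any of these conditions unmet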; also: one replicate is shown; some compounds called inactive have numbers as strong as hits
HNF4A DNA FP: change in binding of human HNF4 alpha to DNA; HNF4a-FITC DNA binding, fluorescence polarization, 1 h; activity change, % at 10 µM; 360,000 tested, 0.3% active; in the data active = activity change above about 30%, passing the limit was not always enough;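 also: controls were the assay level and a saturating level of protein; the project sought stronger binding though the title names inhibitors; some compounds called inactive have numbers as strong as hits; positive values seem to mean higher polarization but the record does not say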
FGF22 binding: FGF22 (human) thermal shift binding; 340,000 tested, 1.5% active; recombinant FGF22 thermal shift, SYPRO orange fluorescence; percent of sucrose octasulfate shift, DMSO zero; calls only at 9.99 µM; Q9HCT0;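 active = melting point raised past a set limit in the mean and every replicate; three in four hits are not shown here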
ALR inh: blocks human ALR sulfhydryl oxidase activity; purified ALR, DTT oxidation, H2O2 HRP-luminol luminescence; P55789; 290,000 tested, 3.8% active; inhibition, % (test concentration not listed); AID 485317;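 active = mean and each replicate at 75% or more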;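 also: stock transfer was 7.5 nL into about 7.5 µL; 0% = neutral wells and 100% = wells with inactivated enzyme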
Target sequence (P55789 whole entry, looked up): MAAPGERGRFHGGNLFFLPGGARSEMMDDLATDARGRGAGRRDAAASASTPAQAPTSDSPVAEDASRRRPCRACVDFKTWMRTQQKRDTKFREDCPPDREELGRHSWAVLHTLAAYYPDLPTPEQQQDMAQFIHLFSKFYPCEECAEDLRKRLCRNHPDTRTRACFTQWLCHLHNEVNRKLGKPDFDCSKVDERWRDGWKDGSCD
E coli growth: E. coli growth inhibition; AID 1053175; 330,000 tested, 0.21% active; Escherichia coli growth, OD600, 23 h; hits give low values; OD600 absorbance (test concentration not listed);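 active = OD600 absorbance below the run mean of sample wells minus 3.6 SD, in any replicate, cut at about 0.56 in these data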;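 also: stock transfer was 300 nL into about 60 µL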
UCH37 DUB inh: human UCH37 deubiquitinating enzyme inhibition. purified proteasome/UCH37, Ub-AMC cleavage fluorescence. inhibition, % (concentration not given with the values). 330,000 tested, 0.33% active. AID 588478;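 active = mean of two replicates above 20%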;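 also: 0% = compound-free wells with enzyme and 100% = wells lacking proteasome; stock transfer was 100 nL into about 20 µL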
Target sequence (Q9Y5K5 whole entry, looked up): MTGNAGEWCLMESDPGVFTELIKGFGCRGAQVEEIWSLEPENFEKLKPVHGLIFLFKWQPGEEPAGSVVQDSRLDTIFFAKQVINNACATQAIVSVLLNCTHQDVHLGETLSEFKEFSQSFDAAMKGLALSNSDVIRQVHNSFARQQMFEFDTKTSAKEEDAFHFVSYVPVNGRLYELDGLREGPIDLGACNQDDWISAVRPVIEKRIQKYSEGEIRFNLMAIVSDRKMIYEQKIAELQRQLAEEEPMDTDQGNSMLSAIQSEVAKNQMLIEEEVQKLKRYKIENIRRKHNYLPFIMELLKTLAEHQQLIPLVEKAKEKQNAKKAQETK
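Material: human UCH37 enzyme supplied as purified proteasome complex / Amount: 0.15 nM proteasome as dispensed / Buffer or medium: pH 7.4 Tris-HCl (50 mM) with ovalbumin, ATP-MgCl2, DTT / Times: preincubation 30 min, reaction 25 min, room temperature / Technique: AMC fluorescence from Ub-AMC cleavage, excitation 355 nm, emission 460 nm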
Ecoli rRNA inh OD600: recorded beside Ecoli rRNA inh, whose call it bears; OD600 change, %; measured here: OD600 growth;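 optical density of the mix in the first replicate; 0 = DMSO median and -100 = no signal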
Ecoli rRNA inh RFP: recorded beside Ecoli rRNA inh, whose call it bears; RFP signal change, %; measured here: RFP humanized mutant strains;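 first replicate; 0 = DMSO median and -100 = no signal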
Starred values were filed as active, the others as inactive; i = inactive; · = no result given. Not all compounds are listed. The share of hits here may be higher or lower than overall.

SMILES	B2AR ag	Ecoli rRNA inh	Ecoli rRNA inh OD600	Ecoli rRNA inh RFP	HNF4A DNA FP	FGF22 binding	ALR inh	E coli growth	UCH37 DUB inh
COc1ccc(/C=N/n2c(C3CCCCC3)n[nH]c2=S)c(OC)c1	28	4	8	2.7	4.7	i	-5	·	·
Cc1cc(C)c(C)c(S(=O)(=O)N2CCCCC2C(=O)O)c1C (stereo unspecified)	-6	-4	-9	3.7	-0.3	i	2	0.64	5.0
Cn1c(=O)c2c(ncn2CC(=O)N2CCCCCC2)n(C)c1=O	-1	-19	-36	-16	1.2	i	·	0.69	-1.8
CC(C)(C#N)c1cc(Cn2cncn2)cc(C(C)(C)C#N)c1	·	·	·	·	·	·	2	0.68	1.5
CCOc1ccc(/C(O)=C2/C(=O)C(=O)N(c3ncccn3)C2c2ccc(C)cc2)cc1 (stereo unspecified)	2	-13	1	-1.2	-0.2	i	20	0.67	10
COc1ccc(-c2c3c(nc4sc5c(=O)[nH]c(C)nc5c24)CCC3)cc1	2	·	·	·	3.2	·	-4	0.76	-88
Cc1ccccc1[C@@]1(C)ON(c2ccccc2C(F)(F)F)C1=O	19	0	3	-5.7	3.9	i	6	·	2.9
CCCNC(=O)c1ccc2c(c1)nc(C)n2-c1cccc(C)c1	-11	-1	-6	-1.6	3.8	i	23	0.71	5.2
O=C1C(=O)N(CCO)C(c2ccccc2)/C1=C(\O)c1ccccc1 (stereo unspecified)	9	12	14	1.7	4.5	i	-9	0.75	16
CCOc1ccc(S(=O)(=O)N(CC(=O)O)c2ccccc2)cc1	-4	·	·	·	-0.8	·	-3	0.7	1.7
COc1cc2c(=O)n(CCCN3CCOCC3)c(=S)[nH]c2c(OC)c1OC	-1	·	·	·	-1.2	·	95*	0.71	8.3
Cc1cc(OCc2cc(C(=O)N(C)Cc3ccccn3)no2)cc(C)c1Cl	-2	-32	-57	-1.6	2.3	i	-7	0.67	-0.3
Cc1cccc(N2CCN(C(=O)C3CCN(S(=O)(=O)c4c(C)noc4C)CC3)CC2)c1C	12	6	-4	-3.2	3.1	i	-2	0.68	-0.2
COc1cc(C(=O)NCCC(=O)N2CCC3(CC2)NCCc2[nH]cnc23)cc(OC)c1OC	5	7	9	0.1	2.3	i	·	0.72	4.4
Cc1cc(C)cc(C(O)c2ncc(-c3ccc(Cl)cc3)[nH]2)c1 (stereo unspecified)	·	-62	-79	-17	-1.6	i	·	·	·

Not a retest: entries from further up.
SMILES	B2AR ag	Ecoli rRNA inh	Ecoli rRNA inh OD600	Ecoli rRNA inh RFP	HNF4A DNA FP	FGF22 binding	ALR inh	E coli growth	UCH37 DUB inh
COc1cc2c(=O)n(CCCN3CCOCC3)c(=S)[nH]c2c(OC)c1OC	-1	·	·	·	-1.2	·	95*	0.71	8.3
Cc1cc(OCc2cc(C(=O)N(C)Cc3ccccn3)no2)cc(C)c1Cl	-2	-32	-57	-1.6	2.3	i	-7	0.67	-0.3
Cc1cccc(N2CCN(C(=O)C3CCN(S(=O)(=O)c4c(C)noc4C)CC3)CC2)c1C	12	6	-4	-3.2	3.1	i	-2	0.68	-0.2
COc1cc(C(=O)NCCC(=O)N2CCC3(CC2)NCCc2[nH]cnc23)cc(OC)c1OC	5	7	9	0.1	2.3	i	·	0.72	4.4
Cc1cc(C)cc(C(O)c2ncc(-c3ccc(Cl)cc3)[nH]2)c1 (stereo unspecified)	·	-62	-79	-17	-1.6	i	·	·	·

Further compounds:
SMILES	B2AR ag	Ecoli rRNA inh	Ecoli rRNA inh OD600	Ecoli rRNA inh RFP	HNF4A DNA FP	FGF22 binding	ALR inh	E coli growth	UCH37 DUB inh
Cc1cc(C)n(CC2CC(=O)N(c3ccc(C)c(Cl)c3)C2=O)n1 (stereo unspecified)	18	-2	-3	1.5	2.3	i	·	0.67	4.2
N#CC1=C(N)N(c2ccccc2)C2=C(C(=O)CCC2)C1c1ccccc1 (stereo unspecified)	1	·	·	·	3.7	·	·	0.72	5.6
O=c1[nH]c(=O)n([C@H]2C[C@H](O)[C@@H](CO)O2)cc1I	-12	·	·	·	0.8	i	-6	·	-0.7
Cn1cc(C(=O)Nc2ccc3c(c2)CCC3)cn1	-7	·	·	·	0.1	·	·	0.71	3.9
COC(=O)c1cc(S(=O)(=O)Nc2ccc(C)c(F)c2)c[nH]1	-7	-8	-12	-1.2	6.0	i	2	0.73	5.7
CC(Sc1nnnn1C1CCCCC1)C(=O)O (stereo unspecified)	0	19	14	-3.2	2.3	·	·	0.66	4.5
COC(=O)c1cc(-c2ccc(NC(C)=O)cc2)nc2ccccc12	-4	-11	-8	-1.9	-2.0	i	-1	0.72	-105
O=C(c1ccc2c(c1)CCN2S(=O)(=O)c1ccccc1)N1CCN(c2ccccc2)CC1	3	-26*	-13*	3.4*	-2.5	i	-2	0.65	3.4
CCOC(=O)c1ccc(N2CCCCC2)c(NS(=O)(=O)c2ccc(C)cc2)c1	5	4	3	1.2	3.8	i	7	0.66	0.7
CC(C)CN(C(=O)CSc1nnc(C2CC2)n1-c1ccccc1)C1CCS(=O)(=O)C1 (stereo unspecified)	0	·	·	·	-1.0	i	·	0.65	1.1
O=S(=O)(CCN(CCS(=O)(=O)C(F)(F)F)CC1CCCO1)C(F)(F)F (stereo unspecified)	39	·	·	·	3.1	·	51	0.57	-0.2
CC(=O)Oc1ccc(C(=O)Cc2ccccn2)c(O)c1	10	·	·	·	-1.4	·	3	0.65	5.9
O=C(NCCc1ccccc1)C1Cc2c(-c3ccccc3Oc3ccccc3)ccnc2O1 (stereo unspecified)	·	-15	-24	-4.3	-0.1	i	·	·	·
C[C@H](NC(=O)c1cccc([N+](=O)[O-])c1)C(=O)OCC(=O)c1ccccc1Br	1	7	8	-1.1	-0.9	i	-4	0.64	4.1
CC(=O)Nc1ccc(NC(=O)CN(C)CC(=O)Nc2ccccc2Br)cc1	-4	13	1	2.9	-5.1	i	-3	0.71	4.0

Complete entries, looked up by structure:
CC(Sc1nnnn1C1CCCCC1)C(=O)O (stereo unspecified) across the screens: B2AR ag = 0; Ecoli rRNA inh = 19; Ecoli rRNA inh OD600 = 14; Ecoli rRNA inh RFP = -3.2; HNF4A DNA FP = 2.3; FGF22 binding = ·; ALR inh = ·; E coli growth = 0.66; UCH37 DUB inh = 4.5
CCOC(=O)c1ccc(N2CCCCC2)c(NS(=O)(=O)c2ccc(C)cc2)c1 across the screens: B2AR ag = 5; Ecoli rRNA inh = 4; Ecoli rRNA inh OD600 = 3; Ecoli rRNA inh RFP = 1.2; HNF4A DNA FP = 3.8; FGF22 binding = i; ALR inh = 7; E coli growth = 0.66; UCH37 DUB inh = 0.7
CC(=O)Oc1ccc(C(=O)Cc2ccccn2)c(O)c1 across the screens: B2AR ag = 10; Ecoli rRNA inh = ·; Ecoli rRNA inh OD600 = ·; Ecoli rRNA inh RFP = ·; HNF4A DNA FP = -1.4; FGF22 binding = ·; ALR inh = 3; E coli growth = 0.65; UCH37 DUB inh = 5.9

(more compounds)
SMILES	B2AR ag	Ecoli rRNA inh	Ecoli rRNA inh OD600	Ecoli rRNA inh RFP	HNF4A DNA FP	FGF22 binding	ALR inh	E coli growth	UCH37 DUB inh
CCN1CCc2c(C#N)c(NCc3ccccc3)nc(NCCO)c2C1	-14	·	·	·	0.9	·	·	0.71	-113
Cc1ccc(N(CC(=O)NCCc2ccc(Cl)cc2)S(=O)(=O)c2c(C)noc2C)cc1	-9	4	9	-3.0	0.9	i	-2	0.64	1.6
O=C1C(Cl)=C(N2CCCCCC2)C(=O)N1c1ccc(Br)cc1	-1	8	11	1.6	3.3	i	-1	0.66	0.9
COc1ccc(NC(=O)CN(C)C(=O)CCNS(=O)(=O)c2ccc(Br)cc2)cc1	-9	4	-1	1.5	-1.4	i	1	0.71	0.6
S=c1[nH]nc(Cc2sc(-c3ccccc3)nc2-c2ccccc2)o1	-8	·	·	·	1.0	·	98*	0.74	-1.5
CCOc1ccccc1NC(=O)N1CCc2ccccc2C1	2	-7	-12	1.6	1.5	i	0	0.69	3.4
COc1ccc(-c2csc(Nc3ccc(C)cn3)n2)cc1OC	-1	-20	-11	16	1.4	i	33	0.68	3.5
Cc1onc(-c2ccccc2)c1C(=O)N/N=C/c1ccc([N+](=O)[O-])c(O)c1	15	-6	5	1.5	2.9	i	-12	·	·
CC(OC(=O)c1ccccc1Nc1ccc(SC(F)F)cc1)C(N)=O (stereo unspecified)	-5	·	·	·	-4.3	·	29	0.65	-18
CCOCC(=O)Nc1cc(C(=O)NCCC(C)C)ccc1Cl	·	·	·	·	·	·	-4	0.67	1.3
O=C(CN1C(=O)S/C(=C\C=C\c2ccccc2)C1=O)Nc1ccc(C(=O)O)cc1	-5	-7	-19	-1.6	-0.7	i	98*	0.67	16
O=C(c1ccc(C(=O)N2CCCCCC2)cc1)N1CCCCCC1	1	·	·	·	-0.6	·	-1	0.77	2.0
Fc1ccccc1NC(=S)N1CCCCC1	-6	12	3	-3.5	3.2	i	1	0.65	-2.9
O=C(COc1ccccc1)Nc1ccc(S(=O)(=O)NCc2ccco2)cc1	4	·	·	·	-3.9	·	0	0.61	3.1
CCC(Sc1nc2c(c(=O)n1CC)SC(C)C2)C(=O)OC (stereo unspecified)	11	-5	-5	-12	-1.1	i	·	0.73	8.6
O=C(OCc1nnc(-c2ccc([N+](=O)[O-])cc2)o1)C1CC(=O)N(CCc2ccccc2)C1 (stereo unspecified)	5	1	6	-4.0	-1.5	i	-15	0.71	2.5
C=C(C)[C@@H]1CC=C(CO)CC1	-6	·	·	·	2.2	i	·	·	·
CNC(=O)OC(C)CNS(=O)(=O)c1ccc(C)cc1 (stereo unspecified)	-2	·	·	·	-0.2	·	-3	0.66	1.0
